Menin-MLL FL inh = displaces fluorescein MLL peptide from human menin; 290,000 tested, under 10 active; AID 1766; Fluorescence polarization, fluorescein-MLL peptide displacement from menin; FP activity change, % at 61.4 µM; inconclusive = falling polarisation curve, or a change in total fluorescence; inactive = total fluorescence flat and polarisation flat or rising; no compound was filed as active; the % refers to the polarisation; negative = inhibition;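 also: % of control where 0% means no effect; inhibitors lower the polarisation; unlabelled MLL peptide was the positive control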
TRPML1 inh = blocks the human TRPML1 channel; Q9GZU1; 390,000 tested, 0.02% active; TRPML1-inducible cells, Ca2+ dye fluorescence, FDSS; stronger effect = lower value; inhibition of EC80 agonist-evoked calcium signal; activity change, negative = inhibition, % (test concentration not listed); AID 624415; in the data active means activity change below about -50%; inconclusive means about -30% to -50%; inactive means above about -30%;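 also: stimulus is agonist 54-4 at its EC80 concentration; % is scaled to controls: 0 for no effect and ±100 for the full control effect; compound concentration not given in the record; the text of the record puts the active cut at -80%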
Target sequence (Q9GZU1 whole entry, looked up): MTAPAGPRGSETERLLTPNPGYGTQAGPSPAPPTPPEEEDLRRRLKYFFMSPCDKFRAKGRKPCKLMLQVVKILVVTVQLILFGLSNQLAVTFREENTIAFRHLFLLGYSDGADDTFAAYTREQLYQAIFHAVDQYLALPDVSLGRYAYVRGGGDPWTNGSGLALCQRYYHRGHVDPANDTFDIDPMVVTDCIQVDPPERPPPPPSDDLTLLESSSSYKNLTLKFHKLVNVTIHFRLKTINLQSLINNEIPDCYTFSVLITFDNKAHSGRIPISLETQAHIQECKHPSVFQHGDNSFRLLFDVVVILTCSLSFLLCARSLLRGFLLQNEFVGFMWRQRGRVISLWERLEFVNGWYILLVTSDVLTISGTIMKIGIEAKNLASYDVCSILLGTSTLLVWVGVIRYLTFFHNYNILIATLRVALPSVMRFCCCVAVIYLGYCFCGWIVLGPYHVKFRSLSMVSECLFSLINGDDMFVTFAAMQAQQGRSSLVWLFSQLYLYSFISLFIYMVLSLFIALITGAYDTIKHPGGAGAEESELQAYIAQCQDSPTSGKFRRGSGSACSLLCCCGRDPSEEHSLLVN
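Calcium fluorescence in TRPML1-DL cells induced overnight with Tet: a 110 s read after compound pin addition, then a 110 s antagonist read after challenge with 54-4 at 4 uM final (EC80).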
Sfp inh = inhibitors of Bacillus subtilis Sfp phosphopantetheinyl transferase; Q9F4F7; Biochemical Sfp PPTase activity, qHTS; Potency, µM, without a hit: max response, negative = inhibition, usual class: inhibitors; 310,000 tested, 3.5% active; active = well fitted inhibition curve with a large enough effect; inconclusive = small, poorly fitted or top-dose-only effect, or another doubt; inactive = no such curve, though single readings can be large or run the other way;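 also: the enzyme is Sfp with the accession as filed and its product quenches rhodamine fluorescence; potency is read from the fitted curve at half-maximal effect; 0% = enzyme reaction without inhibitor and -100% = no enzyme wells; top concentration of the series not given in the record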
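Reaction rates are the 30-min fluorescence difference (ex 525, em 598 nm) in wells containing 15 nM Sfp, 5 uM rhodamine-CoA and 12.5 uM BHQ-2-YbbR at pH 7.6 with 10 mM MgCl2.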
TRPV1 potentiator = enhances activation of the human vanilloid receptor TRPV1 | Q8NER1 | TRPV1-expressing cells, Fluo-8 calcium influx, capsaicin EC20 potentiation; host cell line not named in the record; control for the full effect not named in the record | potentiation, % at 8.33 µM | 320,000 tested, 0.02% active; active means potentiation above 80%; inconclusive means 30% to 80%; inactive means below 30%; also: 0% is about no effect
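Fluo-8 calcium influx in TRPV1-expressing cells, kinetic read (ex 480/em 520 nm). Compound added and read 3 min for agonist activity, followed by capsaicin at EC20 final and 2 min further read for enhancement.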
gsp antag = gsp mutant antagonism; Potency, µM (titrated, usually from 76.9 µM), without a hit: at the top dose activity change, negative = inhibition, usual class: inhibitors; gsp-mutant cells, cAMP HTRF, 30 min; control for the full effect not named in the record; 340,000 tested, 0.4% active; AID 624288; active = falling curve of any shape with a large fitted effect; inconclusive = falling curve, mostly with a smaller effect; inactive = flat or rising curve; cell line not stated here;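 also: intracellular cAMP measured with PDE inhibitor Ro 20-1724 present during compound exposure; potency is read from the fitted curve at half-maximal effect; % is scaled to controls: 0 for no effect and ±100 for the full control effect; nearly all actives have a fitted effect of over 65% in size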
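HTRF cAMP read-out (cAMP-d2 plus anti-cAMP antibody-K in lysis buffer, 30 min RT). Before lysis, cells are exposed to compounds with […] for 30 min at 37C in DPBS containing Ca/Mg, BSA and Tween 20.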
ClpP mod = qHTS Assay for Activators of ClpP. purified B. subtilis ClpP, FRET peptide cleavage, 20 min. ATP-dependent Clp protease proteolytic subunit (Bacillus subtilis (strain 168)), P80244. 340,000 tested, 1.9% active. Potency, µM (top dose mostly 57.5 µM), for the others: at the highest dose activity change, negative = active; active = well fitted falling curve with a large enough effect; inconclusive = small, poorly fitted or top-dose-only effect; inactive = no such curve, though single readings can be large or run the other way; also: potency is read from the fitted curve at half-maximal effect; the source files actives as falling curves though it sought activators and does not explain the sign; nearly all actives have a fitted effect of over 65% in size; many hits overshoot -100%
Target sequence (P80244 whole entry, looked up): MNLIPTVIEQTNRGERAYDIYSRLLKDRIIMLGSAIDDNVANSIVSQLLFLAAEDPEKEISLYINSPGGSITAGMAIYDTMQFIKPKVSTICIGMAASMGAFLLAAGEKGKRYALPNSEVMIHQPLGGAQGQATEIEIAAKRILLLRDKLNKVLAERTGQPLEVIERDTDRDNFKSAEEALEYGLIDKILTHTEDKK
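Purified B. subtilis ClpP, 10 microg/mL final in Tris/HCl pH8 with KCl, BSA, glycerol and Tween-20, cleaved an Abz/nitrotyrosine-quenched decapeptide. Fluorescence (ex 320, em 430) was read at 0 and 20 min at room temperature. Delta was normalized to 5.8 microM ADEP and DMSO/no-enzyme controls.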
gsp ag = activates gsp, the McCune-Albright syndrome mutation; gsp mutant cells, cAMP HTRF, 30 min; control for the full effect not named in the record; 340,000 tested, 0.13% active; AID 624287; Potency, µM (highest dose often 76.9 µM), without a hit: at the highest dose activation (cAMP increase), hits mostly activators; active = well fitted activation curve with a large enough effect; inconclusive = small, poorly fitted or top-dose-only effect, or another doubt; inactive = no such curve, though single readings can be large or run the other way; cell line not stated here;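 also: phosphodiesterase inhibitor Ro 20-1724 added with compounds to block cAMP breakdown; potency is read from the fitted curve at half-maximal effect; nearly all actives have a fitted effect of over 60% in size; about a fifth of the inactives were tested at one dose only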
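Cells stably selected in G418 were plated at 2000/well, grown 16-24 hr, then given compounds in DMSO with the PDE inhibitor […] (300 uM solution added) for 30 min at 37C; cAMP was read by HTRF.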
* marks the source's active call; other numbers are inactive results; ? = inconclusive; nt = no result given; [ ] = dose if it differs, or a comment. Compounds were not picked by outcome; overall some 4.9% were active at least once.

SMILES	Menin-MLL FL inh	TRPML1 inh	Sfp inh	TRPV1 potentiator	gsp antag	ClpP mod	gsp ag
CCc1ccc2c(c1)c1nnc(NN)nc1n2C	3.2	7	-16%	6	10%	nt	-5%[15.4 µM]
CCn1c(CNC(=O)c2cccc(C)c2)nnc1SCC(=O)NC1CCCC1	-1.5	9	7%	-8	3%	nt	-6%[15.4 µM]
CN(CCO)C(=O)CCC(=O)Nc1ccc(S(N)(=O)=O)cc1	-2.2	5	-4%	-13	9%	?	-5%
O=C(OCC(=O)c1ccc(Cl)s1)c1ccc(CO)cc1	nt	12	nt	-10	-1%	-0.7%	10%[15.4 µM]
O=C1C=C(C#Cc2ccc(Oc3ccccc3)cc2)C[C@@H](c2ccc(F)cc2)C1	nt	12	nt	nt	nt	13%	4%
CCN(CC(=O)Nc1ccccc1C(F)(F)F)C(=O)CN1C(=O)NC2(CCCCC2)C1=O	nt	9	nt	3	6%	-2.0%	13%
CC(C)C[C@@H](CNCC(=O)[C@H](CC(C)C)NC(=O)c1[nH]cnc1C(=O)N[C@H](CN)CC(C)C)NC(=O)c1nc[nH]c1C(=O)N[C@@H](Cc1ccccc1)C(=O)O	nt	19	nt	nt	-1%	1.3%	nt
O=C(c1ccccc1F)N1CCN(c2ccccc2)CC1	-4.1	-22	3%	-19	-1%	-1.8%	-4%
CC(C)C(=O)O/N=C1\CCS(=O)(=O)c2sccc21	-1.0	12	13%	-4	nt	nt	8%[15.4 µM]
Cc1c(C(=O)N2CCOCC2)c(S(=O)(=O)Nc2cccc(Br)c2)c(C)n1C	nt	-10	-2%	1	-18%	nt	-26%[15.4 µM]
CCOc1ccc(S(=O)(=O)NCCC(=O)N(CC)CC(=O)Nc2c(F)cccc2F)cc1	nt	12	nt	-2	5%	nt	16%[15.4 µM]
COc1ccc(OCc2nnc(SCC(=O)N3CCOCC3)o2)cc1	-1.9	-23	-12%	-1	12%	nt	3%[15.4 µM]
COc1cccc(-c2cc(C(=O)N3CCN(C(=O)c4ccco4)CC3)[nH]n2)c1	nt	5	20%	-6	3%	0.8%	-36%[inhibitor]
CC(=O)c1ccc(NC(=O)c2noc(C)c2[N+](=O)[O-])cc1	nt	37	-1%	-12	-17%	-0.5%	?
COc1ccc2c(-c3cccnc3)cc(=O)[nH]c2c1	0.6	3	8%	-13	14%	-0.9%	-6%
CCCCN(CCCC)CCNC(=O)CN1C(=O)COc2ccc(S(=O)(=O)N3CCC(C)CC3)cc21	nt	0	10%	-7	-3%	1.4%	?
COc1ccc(OC)c(C2C(C#N)=C(N)Oc3cc(C)[nH]c(=O)c32)c1 (stereo not given)	5.1	-2	0%	5	1%	-1.2%	0%
COc1ccc(C2(C)NC(=O)N(CC(=O)Nc3ccc4c(c3)OCO4)C2=O)cc1OC (stereo not given)	7.9	-2	21%	6	3%	-0.7%	-53%[inhibitor]
O=C(c1ccc(S(=O)(=O)N2CCCCCC2)cc1)N(c1ccccn1)C1CCCCC1	-0.9	-10	11%	-6	-5%	nt	-5%
CCC(C)(C)n1nnnc1C(c1cccnc1)N1CCN(c2cccc(C(F)(F)F)c2)CC1 (stereo not given)	4.7	19	5%	-6	-1%	-5.4%	3%
O=C(CNC(=S)NC(=O)c1ccco1)c1ccccc1	2.2	3	-20%	-3	3%	0.5%	?
COc1ccc(OC)c(NC(=O)CSc2nc3ccccc3c(=O)n2CC2CCCO2)c1 (stereo not given)	-5.4	9	-1%	2	13%	1.9%	-1%
COc1cc2c(cc1NC(=O)Cc1ccc(C)cc1)oc1ccccc12	5.9	72	-26%	11	-28%	4.1%	?
Cc1ccc2[nH]c3c(c2c1)CCC3=O	-2.3	-6	5%	-15	7%	25µM*	?
Cc1ccc(C(=O)N(CC(=O)NC2CCCCC2)c2ccccc2F)s1	1.9	-4	12%	-24	-16%	2.0%	9%[15.4 µM]
COc1cc2c(cc1NC(=O)CCC(=O)O)oc1ccccc12	-4.1	8	4%	-13	?	nt	-65%[inhibitor]
O=C(NCc1ccc2c(c1)OCO2)C1CC(c2ccc(Cl)cc2)=NO1 (stereo not given)	-1.1	0	-4%	24	12%	-0.8%	-16%
O=C(Nc1ccc(NC(=O)c2ccc(Cl)cc2Cl)cc1)c1cccs1	-0.3	4	14%	-14	7%	nt	0%
CC12COC3(C(=O)Nc4ccc([N+](=O)[O-])cc4)CC1CCC32C (stereo not given)	3.9	24	-8%	-4	-16%	1.0%	5%[15.4 µM]
C=C1C(C(=O)Nc2ccc(OCC)cc2)C1C(=O)Nc1ccc(OCC)cc1 (stereo not given)	2.4	-18	18%	2	2%	nt	17%
CCNC(=O)CCn1nc(-c2ccc(Cl)cc2)c2ccccc2c1=O	0.8	-4	-11%	1	0%	1.3%	34%
COc1cc(C(=O)OCC(=O)NC2CC2)ccc1OCCC(C)C	nt	29	nt	-20	-2%	-4.8%	?
CC(=O)CCn1c(=O)n(CCC(C)=O)c(=O)n(CCC(C)=O)c1=O	1.1	9	8%	-8	4%	2.0%	-1%
O=C(CC1C(=O)NCCN1C/C=C/c1ccccc1)NCCc1ccncc1 (stereo not given)	-0.4	-7	13%	-3	-1%	-2.6%	27%
CC(=O)N1CCN(c2nc3ccc([N+](=O)[O-])cc3s2)CC1	-5.2	0	11%	-4	?	-2.2%	-29%
Cc1nnc(SCCn2c(Br)nc3c2c(=O)[nH]c(=O)n3C)s1	5.8	58	19%	-1	4%	?	?
CCN(CC)C(=O)C1=C(C)N(Cc2ccc(C(C)(C)C)cc2)C(=O)C(CC(=O)NCCCCc2ccccc2)C1 (stereo not given)	nt	-7	nt	nt	nt	2.0%	-2%
Cc1cccc(NC(=O)NNC(=O)c2cc(-c3ccccc3Cl)nc3ccccc23)c1	3.6	-27	3%	-11	?	-12%	?
NC1=NC(=O)/C(=C/c2cccc(-c3ccc(S(N)(=O)=O)cc3)c2)S1	3.0	1	-23%	10	4%	0.5%	nt
O=C(O)CC1c2ccccc2CCN1S(=O)(=O)c1cccs1 (stereo not given)	nt	-3	nt	nt	-19%	nt	-4%[15.4 µM]
C/C=C/c1ccc(OCCCCOc2ccc(OC)cc2)c(OC)c1	-0.6	-16	?	2	-7%	?	1%
Cc1noc(C)c1NC(=O)N(C)C[C@H]1Oc2ccc(NS(=O)(=O)c3ccc(F)cc3)cc2C(=O)N([C@H](C)CO)C[C@@H]1C	nt	2	nt	nt	4%	1.9%	nt
S=C(NCc1cccs1)Nc1cccc(Cl)c1Cl	1.5	-14	10%	8	-3%	-1.9%	-9%[15.4 µM]
O=C(CSc1ccc(-c2cccs2)nn1)N1CCCCC1	4.6	19	4%	1	9%	-3.8%	22%
O=C(Nc1ccc(N2CCCCCC2)cc1)c1cccc(S(=O)(=O)N2CCOCC2)c1	nt	31	nt	-2	-33%	8.8%	-126%[inhibitor]
CC(=O)Cc1nsc(NC(=O)c2ccc(-c3ccc(Cl)c(Cl)c3)o2)n1	-2.1	10	-8%	2	?	nt	-10%[15.4 µM]
Cc1ncoc1C(=O)NC1CC(C)(C)Cc2c1cnn2-c1ccccc1 (stereo not given)	nt	5	14%	-8	-18%	2.2%	-2%[15.4 µM]
O=C(CSc1ncnc2c1sc1ccccc12)Nc1ccc(Br)cc1	2.3	14	-24%	3	3%	2.6%	14%
CC1CCCC(C)N1S(=O)(=O)c1ccc(NC(=O)CCN2C(=O)C3CC=CCC3C2=O)cc1 (stereo not given)	nt	3	nt	-17	-1%	-1.6%	-8%
CCOC(=O)[C@H](CCc1ccccc1)N[C@@H](C)C(=O)N1C(C(=O)O)C[C@@H]2CCC[C@@H]21 (stereo not given in full)	nt	10	nt	2	0%	-1.1%	nt
CN(c1ccccc1)S(=O)(=O)c1ccc(C(=O)Nc2cccc(S(=O)(=O)N3CCOCC3)c2)cc1	nt	2	nt	nt	nt	-12%	-3%
Cc1ccc(Nc2nc(N)nc(COC(=O)c3ccc(Br)o3)n2)cc1	nt	34	nt	-9	-12%	2.2%	-11%
Cc1ccsc1C(=O)NNC(=O)COc1ccc(Br)cc1	nt	-13	nt	nt	6%	-1.2%	11%
O=C(c1ccccc1)N1CCN(c2cc(Cl)nc3cc(-c4cccc(Cl)c4)nn23)CC1	nt	39	nt	nt	nt	?	-146%[inhibitor]
CCN(c1ccccc1)S(=O)(=O)c1cc(C(=O)O)ccc1C	1.9	8	15%	2	-9%	-1.7%	?
O=C(CCC(=O)N1CCOc2ccccc21)Nc1ccccc1Br	0.5	-9	17%	-4	3%	2.6%	-56%
CN(CC(=O)NCCc1ccc(S(N)(=O)=O)cc1)CC(=O)Nc1ccc(Cl)c(C(F)(F)F)c1	nt	-13	nt	nt	-2%	-2.3%	0%
O=C(c1cccs1)N1CCN(C(=O)c2cccs2)C1=S	nt	-16	nt	nt	-2%	2.4%	2%
CCOC(=O)C1CCCN(C(=S)Nc2cccc(Cl)c2)C1 (stereo not given)	3.1	15	13%	-6	0%	-1.6%	-17%
CCOc1cc(C2Nc3ccccc3NC3=C2C(=O)CC(C)(C)C3)ccc1O (stereo not given)	3.2	-6	-17%	0	-7%	-7.9%	-4%
(next part)
SMILES	Menin-MLL FL inh	TRPML1 inh	Sfp inh	TRPV1 potentiator	gsp antag	ClpP mod	gsp ag
COCCn1c(SCC(=O)Nc2ccc(F)cc2)nc2c(c1=O)SCC2	nt	20	nt	nt	nt	-0.5%	-113%[inhibitor]
O=C(COC(=O)c1cc(Br)ccc1Cl)NC1CCCC1	-1.0	-2	16%	-11	8%	nt	13%
CCOc1ccccc1NC(=O)/C(C#N)=C/c1c(C)nn(-c2ccc(F)cc2)c1Cl	3.6	9	23%	4	12%	-1.6%	1%
CCC(C)[C@H](NC(=O)NCc1ccco1)C(=O)O (stereo not given in full)	2.1	21	1%	?	5%	-0.6%	12%

Screening data: PubChem, National Center for Advancing Translational Sciences (NCATS)
